E coli growth: E. coli growth inhibition | AID 1053175 | Escherichia coli growth, OD600, 23 h; stronger effect = lower value | 330,000 compounds, 0.21% hits | OD600 absorbance (concentration not given with the values);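 active = OD600 absorbance below the run mean of sample wells minus 3.6 SD, in any replicate, cut at about 0.56 in these data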;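 also: stock transfer was 300 nL into about 60 µL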
UCH37 inh: blocks the human deubiquitinase UCH37; purified proteasome/UCH37, Ub-AMC cleavage fluorescence; inhibition, % (concentration not given with the values); 330,000 compounds, 0.33% hits; AID 588478;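 active = mean of two replicates above 20%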;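 also: 0% = compound-free wells with enzyme and 100% = wells lacking proteasome; stock transfer was 100 nL into about 20 µL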
Target sequence (Q9Y5K5 whole entry, looked up): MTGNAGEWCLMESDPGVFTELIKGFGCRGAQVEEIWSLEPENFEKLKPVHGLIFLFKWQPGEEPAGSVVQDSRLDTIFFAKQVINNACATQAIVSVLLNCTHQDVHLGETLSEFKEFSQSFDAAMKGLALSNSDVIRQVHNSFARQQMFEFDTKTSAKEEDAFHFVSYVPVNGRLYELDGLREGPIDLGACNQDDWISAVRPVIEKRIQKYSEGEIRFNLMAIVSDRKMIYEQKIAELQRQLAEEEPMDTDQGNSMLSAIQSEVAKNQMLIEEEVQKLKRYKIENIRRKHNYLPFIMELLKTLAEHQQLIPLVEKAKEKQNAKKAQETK
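Assay system: Proteasome-bound UCH37. Buffer or medium: pH 7.4 Tris-HCl (50 mM) with ovalbumin, ATP-MgCl2, DTT. Incubation: 30 min preincubation with enzyme, 25 min cleavage at room temperature. Measured by: fluorescence, ex 355 nm, em 460 nm. Read-out basis: percent inhibition. Control set: wells without proteasome as full block, compound-free enzyme plus substrate as uninhibited.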
Beta2AR agonist: human beta-2 adrenergic receptor agonism by FAP; AID 504454; response, % (concentration not given with the values); Am2.2-beta2AR cells, FAP receptor internalization, flow cytometry; reference of the scale not given here; 340,000 compounds, 0.43% hits; P07550;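 active = response above a set limit, near 3 SD of response in nonfluorescent compounds, cut at about 42% in these data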;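 also: stock transfer was 100 nL into about 11 µL; a reference agonist was the positive control; negative values mostly stem from fluorescent compounds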
ALR inh: inhibitors of human sulfhydryl oxidase ALR; inhibition, % (concentration not given with the values); P55789; 290,000 compounds, 3.8% hits; purified ALR, DTT oxidation, H2O2 HRP-luminol luminescence;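 active = mean and each replicate at 75% or more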;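 also: stock transfer was 7.5 nL into about 7.5 µL; 0% = neutral wells and 100% = wells with inactivated enzyme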
Target sequence (P55789 whole entry, looked up): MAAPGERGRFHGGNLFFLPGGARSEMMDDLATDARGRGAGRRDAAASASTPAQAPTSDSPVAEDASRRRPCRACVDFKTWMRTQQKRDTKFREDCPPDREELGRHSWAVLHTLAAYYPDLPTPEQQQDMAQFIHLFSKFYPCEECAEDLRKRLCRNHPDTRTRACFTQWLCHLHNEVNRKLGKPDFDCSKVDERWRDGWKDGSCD
LANA-H2B inh: blocks KSHV LANA binding to histone H2A/H2B. AID 2629. cell-free LANA-H2A/H2B peptide, fluorescence polarization. inhibition, % (test concentration not listed). 320,000 compounds, 0.6% hits; in the data active = inhibition mostly above about 10%, no sharp cut-off; inactive = mostly below about 6.7%;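 also: stock transfer was 7.5 nL into about 10 µL; 0% = median of vehicle wells and 100% = median of positive control wells; one replicate is shown; the record names a cut of 25% in any replicate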
HNF4A DNA FP: change in binding of human HNF4 alpha to DNA | P41235 | activity change, % at 10 µM | HNF4a-FITC DNA binding, fluorescence polarization, 1 h | 360,000 compounds, 0.3% hits; in the data active = activity change above about 30%, passing the limit was not always enough;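 also: controls were the assay level and a saturating level of protein; the project sought stronger binding though the title names inhibitors; some compounds called inactive have numbers as strong as hits; positive values seem to mean higher polarization but the record does not say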
FGF22 binding: shifts melting point of recombinant human FGF22 | recombinant FGF22 thermal shift, SYPRO orange fluorescence; percent of sucrose octasulfate shift, DMSO zero | Q9HCT0 | AID 651658 | 340,000 compounds, 1.5% hits | calls only at 9.99 µM;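 active = melting point raised past a set limit in the mean and every replicate; three in four hits are not shown here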
Target sequence (Q9HCT0 whole entry, looked up): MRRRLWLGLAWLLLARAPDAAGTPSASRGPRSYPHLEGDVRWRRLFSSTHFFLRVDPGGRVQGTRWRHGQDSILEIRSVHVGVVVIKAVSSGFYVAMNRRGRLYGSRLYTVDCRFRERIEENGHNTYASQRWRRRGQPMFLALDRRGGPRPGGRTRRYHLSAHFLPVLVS
The depositor's hits bear a star; i = inactive; / = not tested or not shown. A portion of the library; count on the stated rates, not on these rows.

SMILES	E coli growth	UCH37 inh	Beta2AR agonist	ALR inh	LANA-H2B inh	HNF4A DNA FP	FGF22 binding
Cc1ccc(C(=O)Nc2ccc3c(c2)OCO3)cc1Cl	/	/	4	-5	4.9	-0.2	i
CCOC(=O)C1(Cc2ccc(OC)cc2)CCN(C(=O)c2cccc3nccnc23)CC1	0.68	0.7	-4	-25	3.0	1.6	i
Cc1csc2ncc(C(=O)N3CCc4ccccc43)c(=O)n12	0.77	12	-3	4	-0.3	-5.9	i
COc1ccccc1CCC(=O)OCC(=O)NC1CC1	0.7	0.2	26	-2	1.5	0.6	i
NC(=O)C1CCN(c2ccc(C(F)(F)F)cn2)CC1	0.72	-3.4	-5	-7	-4.3	0.3	i
CCOc1ccccc1OCCC(=O)N1CCN(S(=O)(=O)c2ccccc2[N+](=O)[O-])CC1	0.64	1.9	-2	14	1.9	-1.3	i
COc1ccc(CN2CCN(S(=O)(=O)c3ccc(NC(C)=O)cc3)CC2)cc1OC	0.67	1.0	9	-5	-7.6	2.2	/
O=C(Nc1cccc(F)c1)Nc1ccnn1C1CCN(C(=O)CCN2CCCO2)CC1	0.69	2.3	-6	-9	2.0	-3.1	i
CCOC(=O)c1[nH]cnc1C(=O)Nc1ccc(F)cc1	0.7	2.4	-15	-4	5.2	-2.6	/
Clc1cccc(-c2nc(NCCCN3CCOCC3)c3ccccc3n2)c1	0.7	2.6	4	-5	0.0	5.8	i
CC(=O)c1ccc(OCC(O)COc2ccc(C(C)=O)cc2)cc1	0.71	0.5	-4	-6	4.1	-1.1	/
O=C(NNC1CC(=O)N(c2ccccc2)C1=O)c1cccnc1 (stereo unspecified)	0.65	2.4	-4	12	2.9	5.8	i
O=C(N/N=C1\CCc2ccccc21)c1ccccc1O	/	/	10	/	0.7	-1.5	/
O=C(COC(=O)Cn1cnc2ccccc21)Nc1ccccc1C(F)(F)F	0.73	3.0	-2	-12	-3.2	-2.4	i
Cc1nn(-c2ccccc2)c(Cl)c1/C=N/NC(=O)c1ccco1	/	/	-4	-18	-4.5	1.4	/
Cc1ccc(/C=C2\SC(=S)N(CCC(=O)NNC(=O)c3ccccc3O)C2=O)cc1	0.7	9.8	3	4	-5.4	1.6	i
O=C(NNS(=O)(=O)c1ccc(Br)cc1)c1ccncc1	0.69	6.3	0	11	-1.5	2.7	/
Cc1cccc(C(=O)OCC(=O)N2CCCC2=O)c1O	0.66	3.2	8	24	6.3	0.6	i
CCN1CCN(c2c(C(=O)c3ccc(OC)cc3)cnc3ccccc23)CC1	0.73	7.2	-16	-2	0.8	5.5	i
COc1cc(/C=C2\SC(=Nc3ccc(N4CCOCC4)cc3)N(C)C2=O)ccc1OC(C)C(=O)O (stereo unspecified)	0.65	13	2	17	-2.5	2.3	/
COc1ccc(S(=O)(=O)N(CC(N)=O)C2CCCCC2)cc1Cl	0.73	1.1	1	-26	-2.5	-0.8	/
CC(=O)N1CSCC1C(=O)NNS(=O)(=O)c1ccccc1 (stereo unspecified)	0.71	0.6	-1	6	-0.2	0.5	i
O=C(CNC(=O)c1ccc(Br)o1)NNC(=O)c1ccccc1F	0.65	-0.7	-10	-2	2.5	-2.2	i
COc1ccc(Cl)cc1C(=O)NNC(=O)COC(=O)CCN=C1NS(=O)(=O)c2ccccc21	0.65	4.6	-9	18	-5.1	0.7	i
CCCCNC(=O)Nc1ccc(Br)cn1	0.73	-5.3	10	2	5.7	-0.3	/

Following part.
SMILES	E coli growth	UCH37 inh	Beta2AR agonist	ALR inh	LANA-H2B inh	HNF4A DNA FP	FGF22 binding
CCCC(c1nnnn1Cc1ccc(F)cc1)N1CCN(C2CCCCC2)CC1 (stereo unspecified)	0.77	5.8	-3	-2	4.7	-1.0	/
O=c1c(Cc2c(F)cccc2Cl)c(O)ccn1CC1CCCO1 (stereo unspecified)	0.7	0.9	-3	-4	-6.7	0.6	i
N#CC(C#N)=C1C=CC=CN1/C(=C\c1ccccc1)C(=O)c1cccs1	0.69	-17	88*	-2	3.0	-13	i
CCN(CC(=O)Nc1ccc(NC(C)=O)cc1)CC(=O)Nc1ccc(F)c(Cl)c1	0.71	2.7	-8	-2	0.2	-2.5	i
CCN(CC)Cc1c(O)ccc2c(=O)c(-c3ccc(Cl)cc3)coc12	0.64	-312	6	/	0.3	0.9	i
COC(=O)c1c(-c2ccsc2)oc2ccc(-c3cc(OC)c(OC)c(OC)c3)cc12	0.66	-35	13	-2	-0.6	4.3	i
Cn1cccc1C(=O)OCC(=O)Nc1cc(C(C)(C)C)nn1-c1ccccc1	0.69	4.7	-17	-4	-0.4	3.4	/
CCOC(=O)NC1(C(F)(F)F)NC(=O)N(c2ccc(F)cc2)C1=O (stereo unspecified)	0.7	4.3	0	-12	-0.3	0.2	i
CC(C)(C)C(=O)NC1(C(F)(F)F)NC(=O)N(c2ccccc2F)C1=O (stereo unspecified)	0.71	2.6	4	1	-6.6	2.4	i
O=c1nc(/C=C/c2ccccc2C(F)(F)F)cc(C(F)(F)F)[nH]1	0.71	-8.4	0	-2	0.3	-4.1	i
Cc1nc(C(=O)NC2CC2)sc1C1(C)CC(c2cccc([N+](=O)[O-])c2)=NO1 (stereo unspecified)	0.65	-0.8	-12	6	-4.7	4.9	/
Cc1[nH]c(=O)c(Cc2ccccc2)c(O)c1C#N	0.7	2.2	4	-7	3.3	-3.4	i
O=C(c1cc2ccccc2cc1O)N1CCN(c2ccccn2)CC1	0.63	5.8	-4	-5	2.3	-1.2	i
CCN(CC(=O)Nc1c(F)cccc1F)C(=O)C1CC(=O)N(c2ccccc2OC)C1 (stereo unspecified)	0.73	1.9	0	1	-5.8	-1.3	i
CCCCOC(=O)Nc1nnc(C(C)C)s1	0.66	4.9	6	-6	-1.5	0.6	i
CN1CCC(N(C)C(=O)c2ccccc2F)CC1	0.67	-0.9	4	/	-4.4	-7.1	i
CC12CCC(=O)N1C(C(=O)Nc1ccccc1N1CCOCC1)CS2 (stereo unspecified)	/	/	7	-21	-7.6	-2.4	i
Nc1nnc(SCC(=O)Nc2cc(S(=O)(=O)N3CCOCC3)ccc2N2CCCC2)s1	0.7	4.8	-2	-5	4.7	0.6	i
Cc1ccc(C(=O)NCc2n[nH]c(=S)n2-c2ccccc2)cc1[N+](=O)[O-]	0.68	3.8	2	24	-1.2	-3.3	i
CN1C(=O)CSc2ccc(NC(=O)N3CCC(N4CCCCC4)CC3)cc21	0.7	4.7	5	2	-0.5	-0.9	i
OCCNc1cnc2ccccc2n1	0.63	-110	-1	-3	3.6	-0.7	i
COc1cccc(/C=C/c2[nH]c(=O)[nH]c(=O)c2[N+](=O)[O-])c1O	0.66	8.6	-5	98*	-1.3	0.3	i
CCC1=C(CC2NCCc3ccccc32)CC2c3cc(OC)c(OC)cc3CCN2C1 (stereo unspecified)	/	/	3	/	/	-8.3	i
O=C(c1cnc2n(c1=O)CCS2)N1CCN(c2ccc(Cl)c(Cl)c2)CC1	0.71	3.6	6	7	2.2	1.6	/
Nc1nc(NCc2ccco2)nc(N2CCCCCC2)c1[N+](=O)[O-]	0.66	5.0	-2	/	/	-0.1	/

5 compounds drawn at random from the list so far, as already listed:
SMILES	E coli growth	UCH37 inh	Beta2AR agonist	ALR inh	LANA-H2B inh	HNF4A DNA FP	FGF22 binding
Cc1ccc(C(=O)NCc2n[nH]c(=S)n2-c2ccccc2)cc1[N+](=O)[O-]	0.68	3.8	2	24	-1.2	-3.3	i
O=C(c1cc2ccccc2cc1O)N1CCN(c2ccccn2)CC1	0.63	5.8	-4	-5	2.3	-1.2	i
O=C(c1cnc2n(c1=O)CCS2)N1CCN(c2ccc(Cl)c(Cl)c2)CC1	0.71	3.6	6	7	2.2	1.6	/
OCCNc1cnc2ccccc2n1	0.63	-110	-1	-3	3.6	-0.7	i
CC12CCC(=O)N1C(C(=O)Nc1ccccc1N1CCOCC1)CS2 (stereo unspecified)	/	/	7	-21	-7.6	-2.4	i

Other results.
SMILES	E coli growth	UCH37 inh	Beta2AR agonist	ALR inh	LANA-H2B inh	HNF4A DNA FP	FGF22 binding
COc1ccc(/C=N/NC(=O)COc2ccccc2-c2ccccc2)cc1	/	/	13	-13	-1.2	2.7	/
CCC(CC)CN1CCC(CN2C(=S)NC[C@@H]2CC(C)C)CC1	/	/	0	/	/	1.8	i
Cc1noc(C)c1COC(=O)C1CCN(C(=O)c2ccc(Cl)cc2)CC1	0.67	3.8	8	-3	2.5	-1.2	i
CCOC(=O)c1c(CSc2ccccc2)n(C)c2ccc(O)c(CN3CCN(C)CC3)c12	0.68	1.0	7	17	-0.1	4.0	i
Cc1cccc(C)c1NC(=O)C(=O)c1cn(C)c2ccccc12	0.71	1.1	-1	-3	2.2	-1.3	/
Cc1ccc(CNc2nc(Cl)c(C#N)s2)cc1	0.71	0.3	-6	-2	0.7	-0.4	i
Cc1ccc(S(=O)(=O)Nc2ccc(C(OC(=O)c3ccccc3[N+](=O)[O-])(C(F)(F)F)C(F)(F)F)cc2)cc1	0.69	0.8	6	-5	0.9	-3.9	/
CN(CC(=O)Nc1ccc(Cl)c(C(F)(F)F)c1)C(=O)CCN1C(=O)C2CCCCC2C1=O (stereo unspecified)	0.69	4.5	1	/	0.3	2.1	i
CCO/C=C1\SC(=S)N(c2ccc(Cl)cc2)C1=O	0.63	8.3	-1	26	-1.8	8.6	i
COc1ccc(NCC(O)COc2ccc(C(C)(C)C)cc2)cc1 (stereo unspecified)	0.67	3.0	-5	20	-9.2	-1.7	i
CCOc1ccc(N(CC(=O)NC2CC3CCC2C3)S(=O)(=O)c2ccccc2)cc1 (stereo unspecified)	/	/	-15	/	-7.3	-2.1	i
CCOc1ccc(/C(O)=C2/C(=O)C(=O)N(CCN(CC)CC)C2c2ccco2)cc1 (stereo unspecified)	0.7	1.2	-9	-8	4.2	1.6	/
COc1ccc(NS(=O)(=O)c2cc(N)ccc2N2CCCC2)cc1	0.73	-22	5	32	1.9	-6.6	i
O=[N+]([O-])c1ccc(-c2c[nH]c(=S)[nH]2)cc1	/	/	1	98*	0.5	-2.9	/
O=C(CCS(=O)(=O)c1cccc2nsnc12)N1CCN(C(=O)c2ccco2)CC1	0.66	3.3	-3	-4	1.3	-3.8	/
Cc1ccc(N(C(=O)c2csnn2)C(C(=O)NC2CCCCC2)c2cccnc2)cc1 (stereo unspecified)	0.64	-1.0	3	-1	1.9	-0.3	i
CCOC1CC(C)(C)NC(=S)N1 (stereo unspecified)	0.7	1.0	2	-5	2.8	2.8	/
Cn1c(SCC(=O)NC2CC2)nnc1-c1ccco1	0.74	-1.0	-5	-8	-2.5	-0.3	/
COc1ccc(C2c3ccc4ccccc4c3Oc3ncn(Cc4ccco4)c(=N)c32)cc1OC (stereo unspecified)	0.7	5.0	19	-11	0.1	1.5	/
Cc1ccccc1-c1nnn(C/C(N)=N/O)n1	/	1.2	0	-3	-4.9	1.8	i
CCC(=O)n1nc(-c2ccco2)nc1N	0.74	2.7	-1	0	0.5	2.5	/
O=C(CCn1cccc1)N1CCc2ccccc21	0.68	0.7	3	-2	2.5	-4.5	/
CC(OC(=O)Cc1c[nH]c2ccccc12)C(=O)Nc1ccccc1F (stereo unspecified)	0.69	1.8	4	6	-1.8	1.9	i
O=C(Nc1oc2ccccc2c(=O)c1-c1ccc(Br)cc1)c1ccco1	0.68	4.1	8	-3	5.6	5.4	i
O=C(NCCc1ccc(F)cc1)C1CCN(C(=O)Nc2ccccc2)CC1	0.7	0.2	1	/	-13	-1.3	i
O=C(Cc1csc(NC(=O)Nc2cccc(Cl)c2)n1)NCc1ccccn1	0.61	-1.6	7	/	1.6	0.5	/
O=C(N=C1SC2CS(=O)(=O)CC2N1c1cccc(Cl)c1)C1CCCO1 (stereo unspecified)	0.67	1.6	-4	-2	-2.4	-0.9	i
COc1ccccc1C1C(C(N)=O)=C(C)Nc2nc(-c3ccccc3Cl)nn21 (stereo unspecified)	0.73	-0.2	4	31	-0.5	3.7	i
Cn1c(N)c(C(=O)Nc2ccccc2)c(=O)[nH]c1=O	0.81	2.0	/	-11	-1.7	/	i

High-throughput results as filed in PubChem BioAssay.
